Assay outcomes as filed in PubChem.
NPYLR7 ag = agonists of mosquito NPYLR7 receptor, primary screen, cell-based, Aedes aegypti, calcium fluorescence, mosquito biting behavior; Aedes aegypti neuropeptide Y-like receptor 7 (NPYLR7); HEK293T NPYLR7/Galpha15, GCaMP6s calcium fluorescence; activation, % at 10 µM; 0.15% of 270,000 active; AID 1259423, 2018; in the data active = activation above about 40%;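 also: 0% = vehicle and 100% = reference agonist at the receptor; some compounds past the cut are filed as inactive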
NPYLR7 ag max-min = also measured in NPYLR7 ag; calls as there; activation, %; measured here: Max-Min RFU normalised activation; some inactives read as strong as hits;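 span of the calcium signal over five minutes; 0% = vehicle and 100% = native peptide agonist; compound fluorescence can raise it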
The depositor's hits bear a star; & = joins results of further samples.

SMILES	NPYLR7 ag	NPYLR7 ag max-min
CCOC(=O)NC(=O)CSc1nnnn1-c1c(C)cccc1C	2	5
O=C(c1ccc(OCC2CC2)cc1)N(CC(F)F)C1CC1	7	6
O=C(Nc1ccc(Cl)cc1)C(C1CCCC1)N1CCN(C(=O)CCc2ccccc2)CC1 (stereo not drawn)	-3	3
CC(=O)OC(C(=O)N1CCC(Cc2ccc(-n3cccc3)cc2)CC1)c1ccccc1 (stereo not drawn)	6	1
COC(=O)c1cccc(Oc2nnc(-c3ccc(F)cc3)c3ccccc23)c1	-7	-11
COc1ccccc1Oc1ncccc1CNCc1ccc2c(c1)CCO2	0	-4
O=C1C=C(NCCc2ccccc2)CC(c2ccccc2)C1 (stereo not drawn)	-4	-11
CC(C)CC(=O)Nc1ccc(N(C)C)c(CN(C(=O)c2ccccc2Cl)C2CC2)c1	24	31
Cc1noc(C)c1C1CCCN1C(=O)Cc1ccc2c(c1)NC(=O)CO2 (stereo not drawn)	5	3
CCN(CC)c1ccc(C2C3C(=O)CC(C)(C)CC3=Nc3ccccc3N2C(=O)Cc2ccccc2)cc1 (stereo not drawn)	-6	-8
c1ccc(-c2nc3ccccn3c2Nc2ccc3c(c2)OCCO3)cc1	6	-1
CCN(CC)c1onc(-c2ccccc2)c1CN(CC1CC1)C(=O)c1ccc2c(c1)OCO2	10	9
CCN(CC)c1ccc2cc(C(N)=O)/c(=N\NC(N)=S)oc2c1	130*	88*
COc1ccc2nc(-c3cccc(NS(=O)(=O)c4ccc(OC)c(OC)c4)c3)cn2n1	-9	-12
Cc1ccc(/C=C2\SC(=S)N(CCC(=O)NNC(=O)c3cccc(Cl)c3)C2=O)cc1	2	-7
C/C=C\COC1CCCN(S(=O)(=O)c2ccc(C)cc2)C1 (stereo not drawn)	-1	6
COc1ncccc1CNC(=O)NC1CCN(CC(F)(F)F)C1 (stereo not drawn)	-7	-8
O=C(NCc1cccnc1)c1cc2n(n1)CCN(Cc1ccccc1Cl)C2=O	14	23
CCC(C(=O)N1CCN(C(C(=O)N2CCSCC2)C2CCCC2)CC1)c1ccccc1 (stereo not drawn)	2	39
C=CCc1cc(CN2CCN(Cc3ccc4c(c3)OCO4)CC2)c(O)c(OC)c1	0	-1
COc1ccc2ccccc2c1-c1nccn1CCN1CCOCC1	7	5
Cc1ccc(F)c(S(=O)(=O)NC(=O)C2(C)CCN2C(=O)Cc2cc(F)ccc2F)c1 (stereo not drawn)	0	-3
O=C(NCCn1cccn1)C1CCCN(c2nc(-c3ccccc3)nc3c2CCC3)C1 (stereo not drawn)	5	6
COc1cc(-c2nccn2CCN2CCN(C)CC2)cc2c1OCO2	0	-1
Cc1ccc(C2C(=C(O)c3ccc(F)cc3)C(=O)C(=O)N2CCN2CCOCC2)o1 (stereo not drawn)	2	9
CCOc1cc(C2NC(=O)N(C)C(C)=C2C(=O)OC)ccc1O (stereo not drawn)	-8	-12
Cc1ccc(CN2CCOc3ccc(C(C)(O)COc4ccccc4)cc3C2)s1 (stereo not drawn)	-6	-9
CC(=O)c1ccc(OCc2c(-c3ccccc3)nnn2CC(=O)NS(=O)(=O)c2ccc(C)cc2)cc1	6	2
COc1ccc(N2CN(C(=O)CN(C(=O)C(C)(C)CCl)C3CC3)CC2=O)cc1	4	11
O=[N+]([O-])c1ccc(Cl)c(S(=O)(=O)Oc2cccc3ccccc23)c1	0	1

17 entries from above, with values under each structure.
Below each SMILES – NPYLR7 ag, NPYLR7 ag max-min
c1ccc(-c2nc3ccccn3c2Nc2ccc3c(c2)OCCO3)cc1
 : 6, -1
CCN(CC)c1onc(-c2ccccc2)c1CN(CC1CC1)C(=O)c1ccc2c(c1)OCO2
 : 10, 9
CCN(CC)c1ccc2cc(C(N)=O)/c(=N\NC(N)=S)oc2c1
 : 130*, 88*
COc1ccc2nc(-c3cccc(NS(=O)(=O)c4ccc(OC)c(OC)c4)c3)cn2n1
 : -9, -12
Cc1ccc(/C=C2\SC(=S)N(CCC(=O)NNC(=O)c3cccc(Cl)c3)C2=O)cc1
 : 2, -7
C/C=C\COC1CCCN(S(=O)(=O)c2ccc(C)cc2)C1 (stereo not drawn)
 : -1, 6
COc1ncccc1CNC(=O)NC1CCN(CC(F)(F)F)C1 (stereo not drawn)
 : -7, -8
O=C(NCc1cccnc1)c1cc2n(n1)CCN(Cc1ccccc1Cl)C2=O
 : 14, 23
CCC(C(=O)N1CCN(C(C(=O)N2CCSCC2)C2CCCC2)CC1)c1ccccc1 (stereo not drawn)
 : 2, 39
C=CCc1cc(CN2CCN(Cc3ccc4c(c3)OCO4)CC2)c(O)c(OC)c1
 : 0, -1
COc1ccc2ccccc2c1-c1nccn1CCN1CCOCC1
 : 7, 5
Cc1ccc(F)c(S(=O)(=O)NC(=O)C2(C)CCN2C(=O)Cc2cc(F)ccc2F)c1 (stereo not drawn)
 : 0, -3
O=C(NCCn1cccn1)C1CCCN(c2nc(-c3ccccc3)nc3c2CCC3)C1 (stereo not drawn)
 : 5, 6
COc1cc(-c2nccn2CCN2CCN(C)CC2)cc2c1OCO2
 : 0, -1
Cc1ccc(C2C(=C(O)c3ccc(F)cc3)C(=O)C(=O)N2CCN2CCOCC2)o1 (stereo not drawn)
 : 2, 9
CCOc1cc(C2NC(=O)N(C)C(C)=C2C(=O)OC)ccc1O (stereo not drawn)
 : -8, -12
Cc1ccc(CN2CCOc3ccc(C(C)(O)COc4ccccc4)cc3C2)s1 (stereo not drawn)
 : -6, -9

Next section.
SMILES	NPYLR7 ag	NPYLR7 ag max-min
CCNC(=O)O[C@H]1C(=O)N(C)C2(CCN(C(=O)c3ccccc3OCC)CC2)[C@@H]1C(=O)NC	24	31
CC(C(=O)Nc1c(Cl)cccc1Cl)N1CCN(c2nccs2)CC1 (stereo not drawn)	11	16
COc1ccc(N2CCN(C(=O)C3CC=CCC3C(=O)NC3CCCC(C)C3)CC2)cc1 (stereo not drawn)	-9	-16
Cc1nonc1CC(=O)N1CCc2[nH]nc(-c3ccc(C(F)(F)F)cc3)c2C1	24	14
CCc1nc2ccc(C(=O)N3CCNC(=O)C3)cn2c1N(C)C(=O)Nc1ccccc1OC	-4	-5
O=C(CCN1Cc2ccccc2C1=O)N1CCCC(c2ccn[nH]2)C1 (stereo not drawn)	3	-5
COC(=NCCC(C)C)NC(=O)c1ccccc1Cl	20	22
c1cc2c(cc1C1(CNc3ccc4nnnn4n3)CCCC1)OCCO2	3	3
Cc1ccc(S(=O)(=O)N2CCCCC2C(=O)NC(C)C)cc1 (stereo not drawn)	2	9
Cc1nn2c(=O)[nH]c(SCC(=O)NCC3CCCO3)nc2c1-c1ccccc1 (stereo not drawn)	8	0
CC(=O)c1ccc(N2CCN(C(=O)c3cccc(F)c3F)CC2)c(F)c1	-1	-3
CN(Cc1nccn1C(F)F)Cn1nc2ccccn2c1=S	1	1
Cc1ccc2nc(N(Cc3cccnc3)C(=O)c3ccc4c(c3)OCCO4)sc2c1	-7	-6
CC(C)(C)C(=O)OC1OCCOC1OC(=O)C(C)(C)C (stereo not drawn)	1	1
O=C1CCC2(C(=O)Nc3ccc(-n4cnc5ccccc54)nc3)Sc3ccccc3N12 (stereo not drawn)	1	0
COCCN(Cc1cccs1)Cc1cccc2cnccc12	-9	-13
O=C(NCCc1ccco1)C1CCCN(C2CCN(C(=O)C3CC3)CC2)C1 (stereo not drawn)	2	3
S=c1[nH]nc(C2C3CCCCC32)n1CC1CCCCC1 (stereo not drawn)	2	-6
Cc1cc(C)n2nc(CC(=O)NCCC3CCCCC3)nc2n1	6	5
CC(C)Nc1ncccc1C(=O)NCCc1cccc(Cl)c1	2	6
CC1(C(=O)NS(=O)(=O)c2ccccc2)CCN1C(=O)C1(c2ccc(Cl)cc2)CCC1 (stereo not drawn)	-2	-3
O=C(Nc1cccc(O)c1)c1cnn2c(C(F)(F)F)cc(-c3ccco3)nc12	-5	-6
COc1ccc2sc(N(CCCN3CCOCC3)C(=O)c3ccc([N+](=O)[O-])o3)nc2c1	0	-4
c1ccc(OCCNCCN2CCOCC2)cc1	-9	-8
COc1cccc(C(=O)Nc2c(-c3ccccc3OC)nc3ccc(C)cn23)c1	-6	-5
N#CCCCSc1nnnn1-c1ccccc1	29	14
CC(c1nc2ccccc2s1)N1CCN(CC(=O)Nc2ccccc2Cl)CC1 (stereo not drawn)	6	1
Cc1ccc(C)c(-n2c(C)c(C)n3c4c(=O)n(CCCO)c(=O)n(C)c4nc23)c1	5	-1
Nc1nc(CSc2nnc(C3CC3)n2-c2ccccc2)nc(Nc2ccccc2)n1	5	5
O=C(OCC(O)CO)c1ccccc1Nc1ccnc2cc(Cl)ccc12 (stereo not drawn)	-6&0	-9&-2
Cc1ccc(S(=O)(=O)N(C)c2nccs2)c(F)c1	-6	-6
CC1Cc2cc(C(=O)NCc3cnn4ccccc34)ccc2O1 (stereo not drawn)	5	4
CS(=O)(=O)c1ccc(Cn2c3c(c4cc(F)cc(F)c42)CCCC3CC(=O)O)cc1 (stereo not drawn)	-6	-13
CS(=O)(=O)N(c1ccccc1Cl)S(=O)(=O)c1ccc(Cl)c([N+](=O)[O-])c1	20	12
COc1cn(CC(=O)Nc2ccc([N+](=O)[O-])cc2)c(CSc2nccn2C)cc1=O	-2	-8
COc1ccc(-c2nc(CSc3nc4ccc(Cl)cc4o3)cs2)cc1OC	3	0
COc1cccc([C@@H]2CCN(Cc3cn[nH]c3C(=O)O)C[C@H]2O)c1	4	-2
CC1CN(C(=O)c2nn(-c3ccccc3C(F)(F)F)cc2O)CCO1 (stereo not drawn)	0	-1
Nn1ccc2nc3ccn(C4CCCC4)c(=O)c3cc2c1=O	7	6
O=C(c1ccncc1)N1CC[C@@H](c2ccc3ccccc3c2)[C@H](O)C1	2	3
O=C(Nc1ccccc1C1SCC(=O)N1c1ccc(F)cc1F)c1cccs1 (stereo not drawn)	31	26
COc1cccc(-c2cc3c(Nc4ccc5c(c4)OCCO5)nccc3n2C)c1	5	-4
Cc1cc2c(cnc3ncnn32)c(=O)n1Cc1ccccc1	3	2
COc1ccc(Nc2nccc3c2cc(-c2ccc(C(=O)N(C)C)cc2)n3C)c(OC)c1	0	-7
Cc1sc2ncnc(SCC(=O)c3ccc4ccccc4c3)c2c1C	-9	-15
Cn1c(O)c(C=Nc2ccc(F)cc2)c(=O)n(C)c1=O	16	9
CCOC(=O)C1CCCN(c2cc(C)nn3cnnc23)C1 (stereo not drawn)	1	-4
Cc1noc(C)c1S(=O)(=O)N1CCN(CC(OCc2ccc(C(F)(F)F)cc2)c2ccc(Cl)cc2)CC1 (stereo not drawn)	22	13
OC[C@H]1CCN(Cc2cnc(-c3ccccn3)nc2)C[C@H]1O	-5	-5
Cc1cccc(-c2ccc(NC(=O)C3CCN(C(=O)c4ccncc4)CC3)cc2)c1	-3	-3

Further compounds:
SMILES	NPYLR7 ag	NPYLR7 ag max-min
CCCc1cnc(C)nc1NCCN1CCOC1=O	4	0
O=C1c2ccccc2C(=O)N1CNc1ccccc1F	0	-1
COc1ccc(NC(=O)Cn2c(C)cc(C)c(C#N)c2=O)cc1	1	-9
Cc1cccc(-c2noc(Cn3ccn4nc(-c5ccc(C)c(C)c5)cc4c3=O)n2)c1	1	4
CC(=O)Nc1nnc(SCC(=O)Nc2ccc(F)cc2)s1	1	8
Cc1nc2sc3c(N4CCOCC4)ncnc3c2c2c1COC(C)(C)C2	4	0
O=c1[nH]c2c(n1-c1ccccc1)C=Nc1ccccc1N2	14	4
CC(C)N1Cc2cc(F)ccc2N(CC(O)COC(C)(C)C)CCC1=O (stereo not drawn)	11	17
C/C(=C/C(=O)NC1(C#N)CC1)c1ccccc1C(F)(F)F	0	10
CCCCCOc1ccc(C(=O)Nc2cc(OC)ccc2OC)cc1OCCCCC	-3	-10
O=C(Nc1ccc(F)cc1F)N1CCCCC1CCn1ccnc1 (stereo not drawn)	-2	-7
Nc1nc(N)nc(SCC(=O)c2c[nH]c3ccccc23)n1	0	-3
Cc1ccccc1-n1ncc2c(C3CC3)nn(CC(N)=O)c(=O)c21	8	4
CCC(CC)C(=O)N1CCN(c2ncnc3c2nnn3Cc2ccccc2)CC1	-7	-19
CNC(=O)COc1coc(CN2CCN(c3ccc(F)cc3)CC2)cc1=O	1	3
Cc1nc(C)n(CC(O)COc2ccc(C(=O)c3ccccc3)cc2)n1 (stereo not drawn)	2	5
CCCCCC(=O)N1CCN(c2cc(Oc3ccc(F)c(Cl)c3)ncn2)CC1	10	9
Cc1cc(C)n(CCCC(=O)N2CCNCC2C(=O)NC2CC2)n1 (stereo not drawn)	8	5
COc1ccc(S(=O)(=O)Nc2ccccn2)c(C)c1C	6	7
CCCc1nnnn1Cc1c(C)cc(C)cc1C	5	-9
Cc1cccc(CS(=O)(=O)c2nc3ccccc3nc2C)c1	-1	-6
CCc1nn(C(C)C(=O)NC(C)CCc2ccco2)c(=O)c2cc3occc3n12 (stereo not drawn)	68*	63*
Cc1cc(C)nc(SCC(=O)c2ccc(F)c(C)c2)n1	2	8
CC(=O)N[C@@H]1c2ccccc2C2(CCN(Cc3cccc4nccnc34)CC2)[C@H]1OCc1ccccc1	14	5
Cc1csc(OCC(=O)Nc2ccc(C)c(C)c2)n1	8	2
COc1ccc(Cn2c(C(C)OC)n[nH]c2=O)cc1 (stereo not drawn)	15	11
CC1(O)N(CCCCCC(=O)O)C(=O)OC12CCCCC2 (stereo not drawn)	1	2
COc1ccccc1Cn1c(C)c(C(=O)NCC2CC2)sc1=O	10	6
Cc1ccc2nc(-c3cccc(N)c3C)oc2c1	-2	-8
Cc1nn(CCNC(=O)C(=O)c2cccnc2)c(C)c1Cl	-3	-4
CCOc1ccc(C2CC(c3ccc(F)cc3)=NN2C(=O)CN2CCc3ccccc3C2)cc1 (stereo not drawn)	6	9
O=C1CC(c2ccccc2)CC2=Nc3ccccc3NC(c3ccccc3OCc3ccccc3)C12 (stereo not drawn)	-8	-16
Cc1ccc(CC2(C)C(=O)Nc3cccc(Cl)c32)cc1 (stereo not drawn)	1	2
CCOc1ccc2oc(C(=O)Nc3ccccc3O)c(C)c2c1	2	-2
O=C1N(CCc2ccccc2)c2ccccc2C12OCCCO2	-9	-9
O=C(NNc1c(Cl)cc(Cl)cc1Cl)C1CCCN(c2cnccn2)C1 (stereo not drawn)	8	6

Only part of the results is shown; rates above refer to the full screens.
